Proteasome disasm = inhibitors of ATP-driven 26S proteasome dissociation, primary screen, biochemical, bead-based flow cytometry, GFP-tagged proteasome. anti-FLAG beads, GFP-proteasome disassembly. 24,000 compounds, 0.2% hits. inhibition of disassembly, % (concentration not given with the values). AID 751, 2007;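 active means above 40%; inconclusive means likely self-fluorescent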;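 further: plate controls were ATP control with full disassembly for no effect and ATP-gamma-S intact proteasomes for full effect; higher percent means more bead fluorescence retained so stronger block of disassembly; stock transfer was 100 nL into about 10 µL; wells with too few beads may also be inconclusive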
VCAM-1 rise = enhancers of VCAM-1 display on endothelial cells, cell-based, plate reader, pooled HUVEC, TNFa stimulus (AID 455); HUVEC TNFa-induced VCAM-1 immunofluorescence, plate reader; numbers were filed only for top-ranked candidate wells; augmentation, % at 5 µM; 10,000 compounds, 0.2% hits;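 active means a compound raising TNF-alpha-driven VCAM-1 surface staining, with its hit status upheld on visual or statistical review; inactive means the rest, including hits rejected on review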;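 further: 0% = TNFa with vehicle and 100% = strongest image-checked hit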
Active calls of the source: *; i = inactive; ? = inconclusive; · = not tested or not shown.

Proteasome disasm	VCAM-1 rise	canonical_smiles
4.6	i	CCCCN(Cc1cc2cc(OC)ccc2[nH]c1=O)C(=O)c1ccccn1
2.5	i	CCOc1ccccc1N(C(=O)c1ccco1)C(C(=O)NC1CCCC1)c1cccnc1 (stereo unspecified)
-0.1	·	CCOc1cc2[nH]c(=O)n(CCC(=O)N3CCN(c4ccccc4OC)CC3)c(=O)c2cc1OCC
-0.9	·	CCN(CCCNC(=O)CN(C)S(=O)(=O)c1ccc2c(c1)CCC(=O)N2)c1cccc(C)c1
1.2	·	COc1ccc(S(=O)(=O)Cc2ccc(C(=O)N3CCN(c4ncccn4)CC3)o2)cc1
-1.0	·	Cc1c(C(=O)NCCCN2CCCC2=O)oc2ccc(S(=O)(=O)N3CCOCC3)cc12
0.0	·	O=C(CCCCn1c(=O)[nH]c2ccccc2c1=O)NCCC1=CCCCC1
1.1	·	Cc1ccc2cc(-c3noc(C4CCCCC4)n3)c(=O)[nH]c2c1
-2.1	·	O=C(c1cc(C2CC2)on1)N1CCN(c2ccc(F)cc2)CC1
-1.5	·	CC(C)(C)N1C(=O)c2ccc(C(=O)O)cc2C1=O
1.4	·	O=C(C1CCCN(S(=O)(=O)c2cccs2)C1)N1CCC(N2CCCCC2)CC1 (stereo unspecified)
-2.3	·	CCCCCOC(=O)Cn1c(=O)oc2ccccc21
1.8	·	O=C(CN1C(=O)C2(OCCO2)c2ccccc21)c1ccc(Br)cc1
2.3	i	CC(=O)c1n[nH]nc1NC(=O)c1ccccc1
-0.2	·	COc1ccc(CCNC(=O)CCCn2c(=O)[nH]c3cc(OC)c(OC)cc3c2=O)cc1OC

Reformatted as tab-separated lines: entries from further up
Structure	Proteasome disasm	VCAM-1 rise
CCCCCOC(=O)Cn1c(=O)oc2ccccc21	-2.3	·
O=C(CN1C(=O)C2(OCCO2)c2ccccc21)c1ccc(Br)cc1	1.8	·
CC(=O)c1n[nH]nc1NC(=O)c1ccccc1	2.3	i

Additional entries.
Proteasome disasm	VCAM-1 rise	canonical_smiles
20.7	·	O=C(Cc1ccc(-n2cccc2)cc1)NCc1cccs1
-2.2	·	O=C1CCc2cc(S(=O)(=O)N3CCC(C(=O)NCc4ccccc4Cl)CC3)ccc2N1
13.4	·	O=C(NC1CCCCCCC1)c1ccc2c(c1)N(Cc1ccc(F)cc1)C(=O)CS2=O (stereo unspecified)
-0.1	·	CCc1ccc(S(=O)(=O)NCc2csc(-c3ccccc3)n2)s1
-3.6	i	OC(CNCCc1ccccc1)c1ccccc1 (stereo unspecified)
-0.7	·	COc1ccc(OC)c(NC(=O)CN(c2ccc(C(C)C)cc2)S(=O)(=O)c2c(C)noc2C)c1
0.4	i	Cc1ccc2cc(C#N)c(N3CCCC3)nc2c1C
-1.3	·	CCOc1ccccc1C(=O)n1nc2nc(C)cc(C)c2c1N
0.9	i	O=C(CSc1nnc(COc2ccc(Cl)cc2)o1)OC1CCCCC1
0.2	·	CCC1CCCCN1CCCNC(=O)Cn1nc(-c2ccccc2)ccc1=O (stereo unspecified)
-0.1	i	Cc1ccc2c(CC(=O)OCc3csc(C)n3)coc2c1
0.7	·	CCCCn1cnc2c(cnn2-c2ccc(F)cc2)c1=O
-0.3	·	CCSc1nnc(Cn2c(=O)sc3ccccc32)n1C
-0.5	i	CCCCNC(=O)Cn1c(=O)n(C)c2ccccc21
0.0	i	CNC(=O)CN(c1cc(C)ccc1OC)S(=O)(=O)c1ccc(C)cc1

Part of the list above, set out differently.
structure	Proteasome disasm	VCAM-1 rise
Cc1ccc2cc(C#N)c(N3CCCC3)nc2c1C	0.4	i
CCOc1ccccc1C(=O)n1nc2nc(C)cc(C)c2c1N	-1.3	·
O=C(CSc1nnc(COc2ccc(Cl)cc2)o1)OC1CCCCC1	0.9	i
CCC1CCCCN1CCCNC(=O)Cn1nc(-c2ccccc2)ccc1=O (stereo unspecified)	0.2	·
Cc1ccc2c(CC(=O)OCc3csc(C)n3)coc2c1	-0.1	i
CCCCn1cnc2c(cnn2-c2ccc(F)cc2)c1=O	0.7	·

Next section
Proteasome disasm	VCAM-1 rise	canonical_smiles
4.4	i	Cc1ccc2[nH]c3c(c2c1)CCc1cn[nH]c1-3
-0.9	·	O=C(O)C1C2C=CC(C2)C1C(=O)N1CCN(C/C=C/c2ccccc2)CC1 (stereo unspecified)
0.2	·	COc1ccc(-c2nc(SCC(=O)NCc3ccco3)c(-c3ccccc3)[nH]2)cc1OC
0.0	·	Cc1ccc(CSC2=Nc3ccccc3C3=NC(CCC(=O)NCc4ccco4)C(=O)N23)cc1 (stereo unspecified)
0.3	·	COCCN1Cc2cccc(C(=O)Nc3ccccc3OC)c2C1=O
0.7	·	O=C(O)C1C2C=CC(C2)C1C(=O)N1CCOCC1 (stereo unspecified)
-0.7	·	O=C(NCc1ccco1)c1nnc(Cc2ccc(F)cc2)o1
1.3	·	Cc1cccc(-n2c(CNC(=O)COc3ccccc3)nnc2SCC(=O)Nc2nccs2)c1
1.0	·	COc1cc2[nH]c(=O)n(CCCC(=O)NCCc3ccccc3)c(=O)c2cc1OC
0.2	·	CCCCn1c(C(C)NC(=O)COC)nc2ccccc21 (stereo unspecified)
0.6	·	COc1cccc(CNc2ccc(F)c(Cl)c2)c1O
-0.9	i	CC(=O)c1cc2c(cc1NC(=O)CN1CCN(C(=O)c3ccco3)CC1)OCO2
0.7	·	CCOC(=O)N1CCC(NC(=O)Cn2cccc2C(=O)c2ccccc2)CC1
0.2	·	Cc1noc(C)c1S(=O)(=O)N(CC(=O)NCc1ccc2c(c1)OCO2)c1ccc(C(C)C)cc1
0.3	i	COc1ccc(N(CC(=O)Nc2ccc(F)c(Cl)c2)S(=O)(=O)c2c(C)noc2C)cc1
2.3	·	CCOC(=O)c1c(C)c(C(=O)NCCCOC)c(C)n1C
0.0	i	N/C(Cn1nnc(-c2ccccc2)n1)=N\O
-1.9	i	O=C(NCCSCc1ccco1)Nc1cccc(Cl)c1
0.6	·	CCOC(=O)N1CCC(c2nc3ccccc3[nH]2)CC1
0.1	·	Cc1nnc(NC(=O)NC(C)N2C(=O)C3C4C=CC(C4)C3C2=O)s1 (stereo unspecified)
-0.7	·	Cc1cc(C)c2nc(N3CCCC(C(=O)NCCN4CCOCC4)C3)sc2c1 (stereo unspecified)
-1.6	i	c1ccc(CC2CCN(C(c3cccs3)c3nnnn3C3CCCC3)CC2)cc1 (stereo unspecified)
0.2	i	CCOC(=O)c1sc(N)c(C(=O)OCC)c1COC(=O)C1CC(=O)N(Cc2ccco2)C1 (stereo unspecified)
-0.2	i	O=C(COc1ccc(Cl)cc1)Nc1ncccn1
0.8	·	Cc1ncoc1C(=O)NCc1ccccc1Cl
1.9	i	c1ccc(CN2CCN(c3ncnc4c3[nH]c3ccccc34)CC2)cc1
1.1	i	CC1C=CC(C)C(C(=O)O)C1C(=O)O (stereo unspecified)
0.5	·	CCN(CC)S(=O)(=O)c1ccc2[nH]cc(C(=O)NCCc3ccc(OC)c(OC)c3)c(=O)c2c1
0.2	·	COc1ccc(CCNC(=O)CCN2C(=O)COc3ccccc32)cc1OC
3.0	·	CCN(CC)CCCNC(=O)c1nn(-c2cccc(OC)c2)c(=O)c2ccccc12
0.9	·	COc1ccc(S(=O)(=O)NC(CC(=O)NCc2ccco2)C(C)C)cc1 (stereo unspecified)
1.1	·	N#CN(CC(N)=O)c1nc(N2CCCCC2)nc(N2CCCCC2)n1
0.8	·	O=C(C1CCC(=O)N1C1CCCCC1)N1CCN(c2ccc(F)cc2)CC1 (stereo unspecified)
-3.0	i	O=C(O)C1CSC2c3ccccc3C(=O)N12 (stereo unspecified)
0.5	i	N#CC1=C(N)N2C(=C(C#N)C13CCCCC3)SC1CCCCC12O (stereo unspecified)
-0.9	i	Cc1cc(C(=O)NCc2cccnc2)n(-c2ccccc2)n1
0.5	·	Cc1nn(Cc2ccc(Cl)cc2)c(C)c1NC(=O)c1noc2c1CCCCC2
-2.2	·	CCN(CC)CCCN1C(=O)C(O)=C(C(C)=O)C1c1ccc(OC)cc1OC (stereo unspecified)
1.1	·	Clc1cccc(N2CCN(CCNc3nc4ccccc4n4cnnc34)CC2)c1
0.5	·	CCOC(=O)C1CCN(C(=O)CNS(=O)(=O)c2cccs2)CC1
-0.6	·	O=C(Cc1coc(-c2ccc(F)cc2)n1)Nc1ccccc1
-0.5	·	COC(=O)c1ccc2c(=O)n(CCC3=CCCCC3)c(SCC(=O)N3CCCC3)nc2c1
-1.4	i	Cc1ccc(NC(=O)c2ccco2)cc1NC(=O)CSc1nnc(-c2cccs2)n1C
2.0	·	CCc1c(C)sc(NC(=O)c2cc(C)on2)c1C#N
-0.3	i	C[C@]12CC[C@@H]3c4ccc(O)cc4C(=O)C[C@H]3[C@@H]1CC[C@@H]2O
-3.6	·	Cc1csc(NC(=O)C2CCCN(S(=O)(=O)c3cnc[nH]3)C2)n1 (stereo unspecified)
1.9	·	CCN(CC)S(=O)(=O)c1ccc(C(=O)N2CCN=C2SC)cc1
-1.1	·	O=C(Nc1ccccc1Cl)N1CCN(c2ccc3nnc(-c4ccc(F)cc4)n3n2)CC1
-0.5	i	CCC(=O)Nc1cc(C(=O)NCC2CCCN2CC)c(OC)cc1N(C)C (stereo unspecified)
6.5	i	O=c1c2ccccc2c(C=Nc2ccc(Cl)cn2)c(O)n1-c1cc(Cl)ccc1N1CCOCC1
?	i	Cc1cc(-c2ccc(F)cc2)nc2cc(C(N)=O)nn12
-0.2	i	O=C(CSc1ncnc2c1oc1ccccc12)NCc1ccco1
0.4	i	CC(=O)c1cccc(S(=O)(=O)N2CCC(n3nnc4cc(F)ccc43)CC2)c1
0.3	i	Cc1ncc([N+](=O)[O-])n1CCO
0.2	·	Cc1noc(/C=C/N(C)C)c1S(=O)(=O)N1CCCC(C(=O)NC(C)c2ccccc2)C1 (stereo unspecified)
-0.1	i	Cc1ccc(-n2nc(C)c3cc(C(=O)O)sc32)cc1
-0.5	·	Cc1ccc(-c2ccc(=O)n(CC(=O)N3CCN(c4cccc(C)c4)C(C)C3)n2)cc1 (stereo unspecified)
-1.6	·	C=CCN(C(=O)Cn1c(C(=O)OC)cc2oc(C)cc21)c1ccccc1
-1.5	·	O=C(O)CC(Cn1cnnn1)c1ccccc1 (stereo unspecified)
0.7	·	O=C(c1ccc2nc(N3CCCCC3)sc2c1)N1CCN(Cc2ccc3c(c2)OCO3)CC1

More structures.
Proteasome disasm	VCAM-1 rise	canonical_smiles
0.2	i	COc1ccc(N2CCN(c3ccc(NC(=O)C4CCCCC4)cc3C#N)CC2)cc1
3.8	i	Cn1c(C(=O)OC(C(=O)NC2CCCC2)c2cccnc2)cc2sccc21 (stereo unspecified)
-0.2	i	Cc1cc(C)n(-c2nc3nonc3nc2-n2nc(C)cc2C)n1
0.1	·	COc1ccc(N(CC(=O)NCc2ccccc2OC)S(=O)(=O)c2c(C)nn(C)c2C)cc1
-3.2	·	Cc1cc(=O)n2nc(N3CCC(C(=O)N4CCN(C)CC4)CC3)sc2n1
0.7	i	COc1ccc(-c2nc(CCNC(=O)c3ccco3)cs2)cc1OC
0.7	·	CCOC(=O)c1ccccc1NC(=O)CC(C)CC(=O)O (stereo unspecified)
-1.3	i	COC(=O)C1=C(N)Oc2cc(C)[nH]c(=O)c2C1c1ccncc1 (stereo unspecified)
-0.1	·	O=C(OCC#CCSc1nnc(-c2ccc(Br)cc2)o1)c1ccco1
-0.1	i	COc1ccc(N(CC(=O)N2CCCCC2)S(=O)(=O)c2ccccc2)c(OC)c1
0.3	·	Cn1cccc1Cc1nnc(SCC(=O)Nc2ccc3c(c2)OCO3)n1-c1ccc(F)cc1
0.0	·	CC(C)N(Cc1nc(-c2ccccc2)no1)C(=O)COc1ccccc1
0.5	i	CC(C)c1ccc(-c2nc(N3CCOCC3)[nH]c(=O)c2C#N)cc1
0.0	i	COc1ccccc1Nc1ncnc2c1cnn2-c1cccc(C)c1
0.7	·	CC(NC(=O)c1cccs1)C(c1cccs1)N1CCN(Cc2ccccc2)CC1 (stereo unspecified)
1.5	i	C=CCSc1nc2c(c(=O)[nH]c(=O)n2C)n1CC
-0.3	·	COc1cc(-n2c(C)nc3cc(C(=O)N4CCOCC4)ccc32)cc(OC)c1OC
-1.7	·	CCCNC(=O)CS(=O)Cc1nc(-c2cccc(OC)c2)oc1C (stereo unspecified)
1.4	i	CCC(C)(C)NC(=O)C(c1ccco1)N(C(=O)Cn1nnc2ccccc21)c1ccc2c(c1)OCO2 (stereo unspecified)
1.2	i	Cc1onc(-c2ccccc2Cl)c1C(=O)Nc1cnn(Cc2ccccc2)c1
1.1	i	Cc1ccc(S(=O)(=O)N2CCN(CCO)CC2)cc1-c1nnc2c3ccccc3c(C)nn12
0.3	·	COC(=O)c1c(-c2ccc(C)cc2)csc1N
1.2	i	Cc1ccc(C(C)n2cc(C(=O)NCCN3CCN(C)CC3)nn2)cc1 (stereo unspecified)
0.4	·	Cc1cc2oc3c(c(=O)c2cc1C)C(c1ccc(C(C)C)cc1)N(CCCN1CCOCC1)C3=O (stereo unspecified)
-0.3	·	CCOc1ccc(C2C(=O)N(C3CCCCC3)CC(=O)N2CC2CCCO2)cc1OC (stereo unspecified)
0.4	i	COC(=O)Nc1ccc(NC(C)=O)cc1
0.8	i	CN(C)CC(=O)N1c2ccccc2CCc2ccc(NC(=O)c3ccc(N)cc3)cc21

Not all compounds are listed; the hit share may differ from the screen's.
